VDR inh: blocks the human vitamin D receptor; P11473; VDR-SRC2-3 peptide fluorescence polarization, 2 h; Potency, µM, without a hit: max response, negative = inhibition, most hits filed as inhibitors; actives 0.93% (n = 400,000); active means well fitted inhibition curve with a large enough effect; inconclusive means small, poorly fitted or top-dose-only effect, or another doubt; inactive means no such curve, though single readings can be large or run the other way; further: series mostly up to about 120 µM
Target sequence (P11473 whole entry, looked up): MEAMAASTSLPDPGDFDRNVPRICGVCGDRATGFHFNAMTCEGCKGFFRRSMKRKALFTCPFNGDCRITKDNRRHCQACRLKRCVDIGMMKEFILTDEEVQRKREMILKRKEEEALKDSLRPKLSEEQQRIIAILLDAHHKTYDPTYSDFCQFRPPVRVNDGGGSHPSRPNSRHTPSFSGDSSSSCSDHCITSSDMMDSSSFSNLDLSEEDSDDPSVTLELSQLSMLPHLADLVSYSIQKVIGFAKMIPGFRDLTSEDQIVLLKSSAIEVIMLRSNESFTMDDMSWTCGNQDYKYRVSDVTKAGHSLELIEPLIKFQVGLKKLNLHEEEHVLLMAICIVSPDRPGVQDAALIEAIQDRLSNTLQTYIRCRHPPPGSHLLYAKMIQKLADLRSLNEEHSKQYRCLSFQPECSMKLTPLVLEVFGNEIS
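Measured by FP: displacement of SRC2-3 coactivator peptide from VDR by library compounds, following a two-hour ambient incubation.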
Starred values were filed as active, the others as inactive; ? = inconclusive; & = joins results of further samples. On the % scale 0 is the no-effect control and ±100 the full control effect; potency means the concentration at half of the fitted maximal effect. Some of the compounds tested; count on the stated rates, not on these rows.

molecule	VDR inh
Cc1ccc(N2CC(NC(=O)c3ccc(S(=O)(=O)N(C)C)cc3)CC2=O)cc1C (configuration not stated)	-0.7%
COc1ccc(CCNC(=O)c2ccccc2)cc1	10.3%
CCCN1C(=O)c2[nH]nc(-c3ccccc3)c2C1c1cccc(O)c1 (configuration not stated)	13.6%
CCc1cccc(NC(=S)N(CCCN2CCOCC2)C(C)c2cc3cccc(OC)c3o2)c1 (configuration not stated)	-17.2%
CCc1ccc(C(=O)NNc2ccc(C)c(Cl)c2)cc1	?
COc1ccc(-c2[nH]ncc2CN2CCCCCCC2)c(OC)c1	-7.7%
O=C(Cc1ccc(NC(=O)C2CCN(C(=O)C3CCCCC3)CC2)cc1)Nc1ccc(C(=O)N2CCOCC2)cc1	-11.7%
O=C(CNC(=O)c1ccc(OC(F)F)cc1)NCc1ccccn1	-24.2%
COc1ccc(NC(=O)C(=O)NCc2ccncc2)c(OC)c1	-7.4%
O=C(CSc1nnc(-c2ccccc2)o1)NC1CCCC1	-4.6%
CCOc1ccc(-c2cc(C(=O)N3CCN(c4cccc(C)c4)C(C)C3)c3ccccc3n2)cc1 (configuration not stated)	-7.2%
Cc1ccc(OCCCCn2nnc3sc4c(c3c2=O)CCC(C)C4)cc1 (configuration not stated)	2.7%
CCCc1cc(C(=O)Nc2sc3c(c2C#N)CCC3)no1	70.8µM*
CC(=O)C1=C(O)CC(C)(C)CC1=NCc1nc2ccccc2[nH]1	13.7%
Cn1c(SCCOc2ccc(Cl)cc2)nnc1-c1ccncc1	-14.7%
C=CCNCCCOc1ccc(C)cc1Br	-18.4%
CC(=O)Nc1ccc(/C=C(\C#N)S(=O)(=O)c2ccc(C)cc2)cc1	5.1%
O=C(c1cc(=O)c2ccccc2o1)N1CCCc2ccccc21	7.3%
O=C(NC(=S)Nc1cc(C(F)(F)F)ccc1N1CCOCC1)c1sc2ccccc2c1Cl	4.8%
O=C(Nc1cccc(Cl)c1)C1CCN(C(=O)c2cccs2)CC1	?
CC(C)OC(=O)c1cccc(-c2ccc(C=O)o2)c1	-2.9%
COc1ccc(CCNC(=O)c2cnc3scc(C)n3c2=O)cc1OC	1.3%
Cc1ccc(-c2ccc(S(=O)(=O)N3CCN(C)CC3)cc2)cc1	-8.6%
CC(C)[Si]1(C(C)C)OCC2OC(n3cnc4c(N)ncnc43)C(N)C2O[Si](C(C)C)(C(C)C)O1 (configuration not stated)	6.5%
COCC(=O)N1CCC(Oc2ccc(C(=O)N(C)CCCC3CCCC3)cc2)CC1	-3.5%
Cc1ccccc1C(=O)Nc1ccnn1C1CCN(C(=O)c2ccoc2)CC1	-3.3%
CC1CCN(S(=O)(=O)c2ccc3c(c2)N(CC(=O)N2CCN(c4ccc(Cl)cc4)CC2)C(=O)CO3)CC1	-8.3%
O=C(/C=C/c1ccccc1Cl)NCCc1ccc(F)cc1	-20.6%
Cc1cc2oc(C(=O)N3CCN(CCc4ccccn4)CC3)c(C)c2cc1C	?
CCC1=NN(S(=O)(=O)c2ccc(C)cc2)C(O)(C(F)(F)F)C1 (configuration not stated)	11.9%

Further results
molecule	VDR inh
O=C(COC(=O)/C=C/c1ccc2c(c1)OCO2)NC1CC1	-14.7%
O=C(CCC(=O)N1CCOc2ccccc21)NCc1cccnc1	10.8%
COc1ccc(N2Cc3ccccc3C2=NC(=O)c2cccc([N+](=O)[O-])c2)cc1	-7.1%
COc1ccc(NC(=O)C2CCCN(S(=O)(=O)c3ccc4c(c3)CC(C)N4C(C)=O)C2)cc1 (configuration not stated)	-9.3%
Cc1ccccc1C(=O)Nc1nnc(S(=O)(=O)N2CCCCCC2)s1	-8.9%&9.3%
Cc1ccc(C2NC(c3ccc(C)cc3)C(C)C(=NO)C2C)cc1 (configuration not stated)	-1.2%
C=CCNc1sc(C(=O)c2ccc(Br)s2)c(N)c1C#N	-7.4%
Cc1cc2c(cc1C)C(c1ccccc1OC(C)C)CC(=O)N2 (configuration not stated)	-21.4%
COc1cc(Br)c(C(C)NC(=O)c2cccc(Br)c2)cc1OC (configuration not stated)	4.0%
COc1ccc(C2C(C(=O)NCCN3CCOCC3)c3ccccc3C(=O)N2C)cc1OC (configuration not stated)	4.7%
CCNc1nc(NC#N)nc(SCC(=O)OCC)n1	0.8%
C=CCn1c(=O)/c(=C/c2ccc(Cl)cc2)s/c1=C(\C#N)c1nnc2n1CCCCC2	?
COCCCn1c(=O)c2ccccc2n(Cc2ccccc2)c1=O	-15.9%
Cc1nc(-c2cccc(N)c2)cs1	-21.0%
O=C(c1cc2ccccc2cc1O)N1CCN(c2ccccc2O)CC1	-0.4%
CN(Cc1ccccc1)C(=O)c1ccc(NC(=O)Cc2ccc(NC(=O)C3CCCN(C(=O)C4CC4)C3)cc2)cc1 (configuration not stated)	-3.4%
COc1cccc(C(=O)N2CCN(Cc3ccccn3)CC2)c1	-11.6%
CC(C)c1c(C(=O)N/N=C/c2ccccc2C(=O)O)nnn1-c1nonc1N	-11.9%
CCOc1ccc2nc(NC(=O)COC)sc2c1	-15.4%
COc1ccc(NC(=O)C(C)N(C)Cc2ccc3ccccc3c2)cc1 (configuration not stated)	-11.0%
O=C(CCNC(=O)c1ccc(Br)cc1)NNC(=O)COc1ccccc1F	0.4%
CCN(CC(=O)NCc1ccc(F)cc1)C(=O)Cc1c(F)cccc1Cl	26.1%
O=C(Nc1nnc(-c2ccc(F)cc2)o1)c1ccc(S(=O)(=O)N2CCOCC2)cc1	13.2%
Cc1ccc(S(=O)(=O)n2c([N+](=O)[O-])cnc2C)cc1C	2.4%
Cc1cccc(CCNC(=O)C2CCN(c3nc4ccccc4nc3C(F)(F)F)CC2)c1	4.3%
CC1=C(C(=O)N2CCCCC2)C2(CCC(C)CC2)OC1=O (configuration not stated)	3.8%
C=CCNC(=S)Nc1ccc(C)c(S(=O)(=O)N2CCCCC2)c1	-1.3%
CN(C)CCCNC(=O)CCc1ncc(C(F)(F)F)cc1Cl	-6.2%
COCC(C)NC(=O)Cc1ccc(F)cc1 (configuration not stated)	-31.0%
O=C(Nc1ccccc1C(=O)NCc1cccnc1)c1ccc(Cl)cc1Cl	?

(cont.)
molecule	VDR inh
CC(=O)NCCn1ccc2ccccc21	-5.5%
CC(C)(C)c1ccc(OCCOCCn2c(-c3ccc(Cl)cc3)nc3ccccc3c2=O)cc1	-4.6%
COc1ccc(-c2nc(-c3ccccc3)c(-c3cc([N+](=O)[O-])ccc3C)[nH]2)cc1O	10.7%
CCn1c(SCc2nnc(-c3ccccc3)o2)nnc1-c1ccc(S(=O)(=O)N2CCCC2)cc1	6.9%
FC(F)(F)c1ccc(Oc2ccc(Cl)cc2Br)nc1	-13.3%
CC1CN(Cc2c(O)ccc3c(=O)c(-c4ccccc4)coc23)CC(C)O1 (configuration not stated)	-6.3%
O=C(Nc1nnc(C2CC2)s1)c1cc(S(=O)(=O)N2CCCCC2)ccc1N1CCOCC1	2.6%
CC(=O)c1ccc(NS(=O)(=O)c2ccc(N)cc2)cc1	?
O=c1cc(CSc2ccc(Cl)cc2)nc(-c2ccccc2)[nH]1	0.8%
COc1ccc(/C(C)=N/NC(=O)c2nnn(-c3nonc3N)c2-c2cccs2)cc1	-2.9%
COc1ccccc1N(CC(=O)NC1CCCCC1C)S(=O)(=O)c1cccs1 (configuration not stated)	12.9%
Cc1cc(C)n(CCN(C)C(=O)C2CCC(=O)N(CCN3CCOCC3)C2)n1 (configuration not stated)	-4.6%
CC1(C)C2CCC(C2)C1(C)NC(=O)CNCC1CCCCC1 (configuration not stated)	17.3%
CCOC(=O)Cn1cnc2c(nnn2-c2cccc(OC)c2)c1=O	-22.1%
CC(C)c1cc(-c2cc(C(=O)NCc3ccccc3)on2)nc(NCC2CC2)n1	4.5%
Cc1ccccc1CNC(=O)c1ccc(CSCc2ccccc2)cc1	11.2%
COc1cccc(OCc2cc(C(=O)N3CCN(C4CCCCC4)C(=O)C3)no2)c1	0.5%
O=C(c1ccncc1)N1CCN(S(=O)(=O)c2cccc(C(F)(F)F)c2)CC1	8.3%
O=C(CCS(=O)(=O)c1ccc(F)cc1)Nc1nnc(-c2cccs2)o1	4.5%
Cc1ccc(-c2nn(-c3ccccc3)cc2/C=N/n2c(-c3cccs3)n[nH]c2=S)cc1	-1.8%
NC(=O)C1(N2CCCCC2)CCN(S(=O)(=O)c2ccccc2)CC1	-1.9%
COc1ccc2[nH]c(C(=O)O)c(NC(=O)c3ccccc3[N+](=O)[O-])c2c1	-7.5%
CC(=O)Nc1ccc(NC(=O)CSc2nc(N)c(NC(=O)c3ccco3)c(=O)[nH]2)cc1	1.7%
CC(C)n1cc(NC(=O)COc2ccccc2Cl)cn1	-0.1%
COc1ccc(CCNC(=O)C(=O)NCc2cccs2)cc1OC	-20.2%
Cc1sc(N)nc1-c1ccc2c(c1)OCCO2	-17.3%
COc1ccc(C)cc1NC(=O)CSc1nnc2ccc(-c3ccccn3)nn12	18.5%
O=C(NC1CCCCC1)C(c1ccc(F)cc1)N(Cc1ccco1)C(=O)c1csnn1 (configuration not stated)	-13.1%
Cc1cc(NC(=O)CS(=O)(=O)c2c[nH]c3ccccc23)no1	16.7%
Cc1cc(C(=O)Nc2ccncc2)c2ccccc2n1	7.5%

Part of the list above in a different format:
CC(C)n1cc(NC(=O)COc2ccccc2Cl)cn1
- VDR inh: -0.1%

CC(=O)NCCn1ccc2ccccc21
- VDR inh: -5.5%

CCn1c(SCc2nnc(-c3ccccc3)o2)nnc1-c1ccc(S(=O)(=O)N2CCCC2)cc1
- VDR inh: 6.9%

Grouped by structure: the compounds so far with a COOH group (two)
molecule	VDR inh
CC(C)c1c(C(=O)N/N=C/c2ccccc2C(=O)O)nnn1-c1nonc1N	-11.9%
COc1ccc2[nH]c(C(=O)O)c(NC(=O)c3ccccc3[N+](=O)[O-])c2c1	-7.5%

Next results follow:
molecule	VDR inh
CN(C)c1ccc(CN(C(=O)c2ccc(Cl)c([N+](=O)[O-])c2)C2CCS(=O)(=O)C2)cc1 (configuration not stated)	-9.7%
COc1ccc2oc(C(=O)OCC(=O)NCc3ccc(OC)c(OC)c3)c(C)c2c1	-7.5%
CC1CC(C)C[N+](=C2C=C(N3CCCC3)CC(C)(C)C2)C1 (configuration not stated)	-0.9%
C=CCOC(=O)c1c(C)nc2cc3c(cc2c1C)OCO3	-22.5%
CC(=O)N1CCC2(CC1)CN(c1ccncc1)C2	-2.3%
O=C(c1ccc(O)cc1)c1ccc(C(=O)c2ccc(O)cc2)cc1	-19.5%
Cc1nc2ccc(-c3nc4ccccc4o3)cc2[nH]1	-14.4%
COc1ccc(NC(=O)C2CCN(C(=O)c3sc4nc[nH]c(=O)c4c3C)CC2)cc1Cl	14.3%
O=C(CNC(=O)c1ccc(Cl)cc1Cl)OCC(=O)N1CCN(c2ccccc2)CC1	0.1%
COc1ccc(-c2csc(Nc3ncccc3C)n2)cc1	7.4%
COC(=O)C1CCN(C(=O)C2CC(=O)N(c3ccc(C)c(Cl)c3)C2)CC1 (configuration not stated)	7.7%
O=C(CN1N=C(C(F)(F)F)CC1(O)c1ccc([N+](=O)[O-])cc1)c1ccccc1 (configuration not stated)	-10.5%
COc1ccc(CNC(=O)CN(CC2CCCO2)C(=O)CNS(=O)(=O)c2ccccc2)cc1 (configuration not stated)	9.3%
COc1ccccc1CC(=O)N1CCN(c2ccccn2)CC1	-1.7%
COC(=O)[C@H](COC(C)(C)C)NC(=O)O[C@@H]1C(=O)c2cc(OC)ccc2O[C@H]1c1ccc(OC)c(Br)c1	-5.4%
C=CCOc1ccccc1CN1CCN(CCc2ccccc2)C(CCO)C1 (configuration not stated)	-24.2%
COc1ccccc1CNc1nc(S(=O)(=O)c2ccccc2)c(Cl)s1	-11.5%
COc1cc(Cl)c(CNC[C@H]2O[C@@H](n3cnc4c(N)ncnc43)[C@H](O)[C@@H]2O)c(Cl)c1O	-3.0%
COC(=O)CSc1nnc(-c2cnccn2)n1C	-10.2%
CC(=O)c1cc(C#N)c(Oc2ccc(Cl)cc2Cl)nc1C	5.9%
COc1ccc(NC(=O)c2cc(S(=O)(=O)N3CCCC3)oc2C)cc1	-20.4%
COc1ccccc1C(=O)NCCn1cc(SCC(=O)Nc2nnc(C)s2)c2ccccc21	13.3%
CC(=O)Oc1ccc2c3c(c(=O)oc2c1C)CCCC3	-7.9%
O=C1C2C(c3ccccc3)C=CC(c3ccccc3)C2C(=O)N1c1ccccn1 (configuration not stated)	-4.0%
Cc1ccsc1C1C(C#N)=C(N)OC2=C1C(=O)CCC2 (configuration not stated)	15.7%
Cc1ccc(NC(=O)C2CCC(CNS(=O)(=O)c3csc(C(N)=O)c3)CC2)cc1Cl (configuration not stated)	12.9%
COc1ccc(CCN2C(=O)C3C4C=CC(C4)C3C2=O)cc1OC (configuration not stated)	-0.1%
COc1ccc(OC)c(C2C=C(C34CC5CC(CC(C5)C3)C4)NC(=S)N2)c1 (configuration not stated)	-13.9%
C/C(CC(=O)NC1CCCCC1)=N\NC(=O)c1ccccn1	-6.3%
COc1cc(C(=O)NC(C)c2cnn(-c3ccccc3C)c2C)cc(OC)c1OC (configuration not stated)	7.3%

Fetched by structure from above, 4 records:
molecule	VDR inh
CC1CC(C)C[N+](=C2C=C(N3CCCC3)CC(C)(C)C2)C1 (configuration not stated)	-0.9%
C=CCOC(=O)c1c(C)nc2cc3c(cc2c1C)OCO3	-22.5%
COc1ccc(OC)c(C2C=C(C34CC5CC(CC(C5)C3)C4)NC(=S)N2)c1 (configuration not stated)	-13.9%
Cc1ccsc1C1C(C#N)=C(N)OC2=C1C(=O)CCC2 (configuration not stated)	15.7%
